HCMV NEC inh: inhibitors of HCMV UL50-UL53 interaction, biochemical, HTRF. actives 0.15% (n = 190,000). inhibition, % (concentration not given with the values). normalized percent inhibition;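 active = both replicates at 50% or more, plus weaker picks with an unusually low signal ratio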;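 note: stock transfer was 100 nL into about 20 µL; 0% = negative control wells and 100% = wells with untagged competitor protein; inactives centre near -12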
Sa growth inh: S. aureus growth inhibition at 42 and 30 °C, primary screen, LtaS inhibitor project, RN4220, two temperatures. OD600, 20 h, 42 °C; hits give low values. relative growth, % (concentration not given with the values). actives 0.53% (n = 170,000);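 active = growth at 42 °C up to 50% and 20 or more points under that at 30 °C, or under 10% at both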;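 note: 300 nL library stock went into each well; scaled to the means of positive and negative controls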
GIV-Gai inh: inhibitors of GIV peptide binding to Galpha-i3, primary screen, biochemical, fluorescence polarization, FITC-GIV GBA peptide, rat Galphai3; Guanine nucleotide-binding protein G(i) subunit alpha-3 (Rattus norvegicus), P08753; 90 min; hits give low values; scaled: aluminum fluoride 0%, vehicle 100%; percent of control (FP), % (concentration not given with the values); actives 0.42% (n = 210,000); AID 1224905, 2016;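 active = replicate mean at 85% of control or lower, very high polarization wells dropped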;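 note: wells of about 15 µL received 100 nL stock; the first replicate is given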
Target sequence (P08753 whole entry, looked up): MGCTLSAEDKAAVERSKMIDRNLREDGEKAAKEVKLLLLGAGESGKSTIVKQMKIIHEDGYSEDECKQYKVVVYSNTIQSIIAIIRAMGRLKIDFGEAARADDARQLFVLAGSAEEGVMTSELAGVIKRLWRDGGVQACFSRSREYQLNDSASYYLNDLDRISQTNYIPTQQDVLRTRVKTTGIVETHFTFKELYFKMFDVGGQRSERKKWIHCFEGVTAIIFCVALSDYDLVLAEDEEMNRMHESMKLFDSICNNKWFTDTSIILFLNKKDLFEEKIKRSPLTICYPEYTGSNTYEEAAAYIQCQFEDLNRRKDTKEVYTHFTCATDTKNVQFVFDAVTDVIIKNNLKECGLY
Sa growth inh second temp: second read-out of Sa growth inh, no call of its own (marks repeat the call); relative growth, %; measured here: growth at 30 °C;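 optical density after 20 h as mean of two plates; 100% = untreated growth and lower means inhibition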
Active calls of the source: *; · = not tested or not shown.

smiles	HCMV NEC inh	Sa growth inh	Sa growth inh second temp	GIV-Gai inh
CC1CCN(S(=O)(=O)c2ccc3c(c2)N(CC(=O)NCCCOC(C)C)C(=O)CO3)CC1	4.9	97.7	101.9	99.3
O=C(OCc1ccccc1F)c1ccc(O)cc1	-10.4	81.2	64.4	·
Cc1ccc2nc(NC(=O)c3nc(SCc4ccccc4C)ncc3Cl)sc2c1	10.7	102.8	101.6	102.9
COc1ccc(CN2CC(C(=O)NCCCN3CCC(C)CC3)CC2=O)cc1 (configuration not stated)	·	94.3	85.3	101.8
CCOC(=O)c1cc2c(c(CSc3ccc(C(F)(F)F)cn3)c1)OCOC2	-58.4	86.2	90.6	102.6
COc1ccc(CNC(C)c2ccccc2)cc1 (configuration not stated)	-5.6	112.0	87.7	·
COc1ccc(-c2[nH]ncc2C(=O)NCc2cccc(F)c2)cc1	-19.3	104.1	89.8	103.1
CCCN(c1nc(C)c(Cl)c(OC)n1)S(=O)(=O)c1ccc(C)cc1	-6.1	·	·	101.7
CC1=C(C#N)C(=O)NC(=O)/C1=C/c1ccc(-c2cccc(C(=O)O)c2)o1	9.5	91.5	88.6	109.0
COc1ccc(-n2c(Cc3cccn3C)nnc2SCC(=O)N2CCC(C)CC2)cc1	-28.4	·	·	96.4
CC(C)(C)c1ccccc1OCCCCCn1ccnc1	-19.9	-1.0*	-0.5*	·
Cc1ccc(NC(=O)Cn2c3ccccc3c(=O)c3cc([N+](=O)[O-])ccc32)cc1F	-12.3	·	·	104.3
CN(C)/C=C(\C#N)c1ccccn1	-26.0	91.4	88.1	101.8
CC(C)(C)c1cc(C(F)(F)F)c(C#N)c(SCC#N)n1	-7.3	102.9	98.1	106.6
O=C(CCCc1nc(-c2ccccc2)no1)Nc1cccnc1	6.1	96.3	96.0	100.4
Cc1ccc(-c2cc(C(=O)NCCN(C)C)c3cc(Br)ccc3n2)o1	-50.5	107.1	93.5	111.4
CCCSc1nnc2c(n1)OC(c1cccs1)Nc1ccccc1-2 (configuration not stated)	-30.9	·	·	102.7
COc1ccc(CCN(C)S(=O)(=O)c2cn(C)c(=O)n(C)c2=O)cc1OC	-16.2	102.5	89.6	·
CCCNC(=O)c1cc(CC(C)C)on1	·	89.9	85.5	100.4
Cc1ncc(CO)c2cc(-c3nc(-c4ccc(Br)cc4)no3)c(=O)oc12	-24.3	·	·	107.3
C(=N\n1cnnc1)/c1cccc(/C=N/n2cnnc2)c1	-6.2	109.5	111.6	106.6
COc1ccccc1OCCn1c(CCNC(=O)c2cccc(C)c2)nc2ccccc21	-14.8	·	·	103.9
Cc1ccc(SC(CC(=O)c2ccc(C)cc2)C(=O)O)cc1 (configuration not stated)	5.0	99.8	105.9	105.5
Cc1ccc(-c2nc(SC3CC(=O)N(c4ccccc4)C3=O)n[nH]2)cc1 (configuration not stated)	·	52.8	37.5	96.6
CCNS(=O)(=O)c1cc(-c2nnc(OC)c3ccccc23)ccc1C	·	100.2	78.6	104.3

Next section
smiles	HCMV NEC inh	Sa growth inh	Sa growth inh second temp	GIV-Gai inh
COc1ccc(C(=O)NCC(c2ccc3c(c2)OCO3)N2CCN(C)CC2)cc1OC (configuration not stated)	·	121.6	100.5	109.3
Cc1cc(C)c(S(=O)(=O)N2CCN(C(=O)C3CC3)CC2)c(C)c1	-17.5	119.8	89.1	·
CCOc1ccc(-n2c(SCc3nc(N)nc(N)n3)nc3ccccc32)cc1	-18.3	88.3	88.6	·
CC1CN(C(=O)C23CC4CC(C)(CC(C)(C4)C2)C3)CC(C)O1 (configuration not stated)	-24.5	126.0	94.6	101.2
CC(C)(C)c1ccc(C(=O)CCCN2CCC(OC(c3ccccc3)c3ccccc3)CC2)cc1	-16.8	·	·	103.4
CC(=O)Oc1ccccc1C(=O)NCC1CCCO1 (configuration not stated)	-23.2	88.4	86.9	·
CCc1ccccc1NC(=O)CN1C(=O)c2cccnc2Sc2ccccc21	·	92.5	99.6	109.0
Cc1nc(C(F)(F)F)ccc1C(=O)N1CCSCC1	-32.7	92.2	91.5	103.4
COC(=O)c1c(NC(=S)NC(=O)c2ccccc2)sc2c1CCCC2	·	92.9	84.3	103.7
CC1=CC(c2ccccc2)n2nc(NS(=O)(=O)c3ccc(C)cc3)nc2N1 (configuration not stated)	-43.7	·	·	102.5
C=CCOc1nnc(OCC=C)c2ccccc12	·	82.5	74.2	100.7
FC(F)(F)c1cc(-c2nsc(N3CCOCC3)n2)cc(C(F)(F)F)c1	-7.1	92.5	82.0	97.3
O=C(NC1(C(F)(F)F)C(=O)Nc2c1c(=O)[nH]c(=O)n2-c1ccc(F)cc1)c1ccccc1 (configuration not stated)	-47.2	106.7	89.2	103.5
Cc1cc(C)c2oc(-c3cc(NC(=O)COc4ccccc4C)ccc3Cl)nc2c1	·	115.8	92.0	110.5
COc1ccc(NC(=O)c2ccco2)cc1NC(=O)c1cc(Cl)ccc1OC	-33.0	103.2	90.6	103.4
CC(C)(C)OC(=O)/C(C#N)=C/C1CCCCC1	-23.9	83.6	84.5	100.9
CCOc1ccc(S(=O)(=O)N2CCN(c3ccc(OC)cc3)CC2)cc1-c1nc(C)no1	-11.7	·	·	106.8
CC(CN)(NS(=O)(=O)c1ccccc1)c1ccccc1 (configuration not stated)	-4.0	105.4	86.5	105.7
CN(C)/C=C1\N=C(c2cccnc2Oc2ccc(Cl)cc2)OC1=O	-40.4	96.6	88.8	100.4
O=C(c1ccc(=O)[nH]n1)N1CCc2ccccc21	9.8	108.0	91.6	·
O=C(c1ccc(COc2ccc(F)cc2)o1)n1cccn1	-16.7	101.2	81.6	97.7
N#Cc1ccsc1NC(=O)COc1ccc(-c2nnco2)cc1	-5.9	99.6	88.2	·
CCC1CN(C(=O)Nc2ccc(Br)cc2F)c2ccccc2S1 (configuration not stated)	·	121.3	104.5	107.2
CC(=O)N1CC=C(c2c(C)[nH]c3ccccc23)CC1	-30.4	32.6	20.7	112.9
O=C1Nc2ccccc2/C1=C\c1ccccc1N1CCN(Cc2ccccc2)CC1	-39.6	79.3	63.2	103.6

Next part
smiles	HCMV NEC inh	Sa growth inh	Sa growth inh second temp	GIV-Gai inh
CCCc1cc(NCC2CCCO2)n2c(nc3ccccc32)c1C#N (configuration not stated)	-45.7	97.2	87.5	107.2
NS(=O)(=O)c1ccc(NC(=O)CC2SC(=O)NC2=O)cc1 (configuration not stated)	·	93.0	71.3	100.5
O=C(Nc1ccccc1C(F)(F)F)C1CCC1	-0.5	98.5	101.1	106.2
CN(C1CCCCC1)S(=O)(=O)c1ccc(N)cc1	-7.3	74.1	113.8	·
CC1CCN(C(=O)c2ccc3nc(N4C(=O)CCC4=O)sc3c2)CC1	-22.6	94.6	74.8	96.2
COCCn1c(O)c(C(C)=NCC(C)(C)N2CCOCC2)c(=O)[nH]c1=S	0.1	86.8	87.6	·
OC(COCc1ccccc1F)CN1CCCC1 (configuration not stated)	-28.9	120.7	83.9	·
Cc1ccc2cc(C3=NN(C(=O)CCC(=O)O)C(c4ccc(Br)cc4)C3)c(Cl)nc2c1 (configuration not stated)	-2.6	·	·	102.6
O=C(O)CNS(=O)(=O)c1cccc2nsnc12	-75.0	·	·	109.3
CC(C)C1N(C(=O)N(C)C)CCN1S(=O)(=O)c1ccccc1 (configuration not stated)	20.8	88.7	78.9	103.9
CCOc1ccc(N(CC(=O)Nc2ccccc2)S(C)(=O)=O)cc1	0.3	110.4	113.0	106.6
Cc1cc(=O)oc2cc(OC(C)C(=O)NC3CCCCCC3)ccc12 (configuration not stated)	4.7	92.4	82.2	·
Cc1cc(C)cc(NC(=O)c2cc(S(=O)(=O)N3CCc4ccccc43)cn2C)c1	-1.4	101.0	108.7	101.6
Cc1ccc(-c2noc(-c3ccc(N4CCCCC4)c([N+](=O)[O-])c3)n2)cc1	0.5	99.8	94.9	106.0
Cc1cc(Br)ccc1NC(=O)C(NS(=O)(=O)c1cccs1)c1ccccc1 (configuration not stated)	9.5	115.3	99.2	105.0
CCOC(=O)c1nc(-c2ccccn2)no1	-19.2	·	·	98.5
COCCCNC(=O)c1c(NC(=O)Cc2coc3cc(C)ccc23)sc2c1CCCC2	-11.0	134.4	95.0	105.4
Cc1nc2sccn2c1C(=O)c1ccccc1	-11.4	107.8	85.6	·
COc1ccc(NC(=O)CN(C)S(=O)(=O)c2cnc[nH]2)cc1Cl	-20.9	108.2	86.3	100.9
CC(C)COC1C(=O)CCCC1CC(=O)O (configuration not stated)	-9.5	105.1	100.0	107.3
CCOc1ccccc1C(=O)N1CCc2cc(OC)c(OC)cc2C1COc1ccc(OC)cc1 (configuration not stated)	·	102.5	80.7	106.9
COc1ccc(S(=O)(=O)N(C)S(=O)(=O)c2ccc3ccccc3c2)cc1	-20.8	101.2	96.8	·
CN(C)CCCN1CNC(=S)NC1	-2.1	98.0	101.1	103.1
CCOC(=O)c1c(NC(=O)c2cc(CC)on2)sc(C(C)=O)c1C	-10.7	102.2	91.6	105.7
O=S(=O)(c1ccc(Br)cc1)N1CCCC(c2nc(-c3ccc(Cl)cc3)no2)C1 (configuration not stated)	-30.5	·	·	98.8

(further entries)
smiles	HCMV NEC inh	Sa growth inh	Sa growth inh second temp	GIV-Gai inh
CCCCCCn1c(CNC(=O)c2ccccc2)nc2ccccc21	-16.4	107.0	92.7	100.0
CC(=O)Nc1ccc(NC(=O)c2oc3ccc4c(c3c2C)C(=O)CC(C)(C)O4)cc1	·	113.8	66.0	106.9
COc1ccc(-c2cc3c(=O)n(CC(=O)Nc4ccc(Br)c(C)c4)ccn3n2)cc1OC	·	98.2	83.2	107.8
O=S(=O)(c1cnc[nH]1)N1CCCC1c1ccc(F)cc1 (configuration not stated)	-8.3	·	·	100.2
CCOC(=O)Cc1ccc2sc(-c3ccccc3)nc2c1	-38.0	99.7	83.9	·
CC(=O)Oc1cccc(-c2nc(C(N)=O)c(N)o2)c1	-48.3	70.3	84.2	·
CC1=NN(c2ccc(Cl)cc2)C(=O)C12Cc1c(C)nn(-c3ccccc3)c1N1CCCC12 (configuration not stated)	-5.7	93.8	97.7	·
Cc1cccc(NC(=O)c2ccccc2)c1C(=O)O	-8.0	118.8	85.7	101.4
O=C1/C(=C\c2ccc(Br)o2)CCC/C1=C\c1ccc(Br)o1	-2.8	61.1	42.9	107.4
Cc1sc2nc(SCC(=O)NC3CCCCC3)[nH]c(=O)c2c1C	-3.2	81.4	97.2	·
Cc1ccc(-c2n[nH]c3c2C(c2ccccc2Cl)N(c2ccc(Cl)cc2)C3=O)cc1 (configuration not stated)	·	90.4	88.5	99.2
CN1C(=O)NC(=O)/C(=C/c2ccc(F)cc2)C1=O	6.1	102.2	68.9	94.7
O=C(CCC(=O)Nc1cccc2ccccc12)Nc1cccc2ccccc12	-20.4	100.9	81.9	·
O=S(=O)(c1cccc2nsnc12)N1CCN(C/C=C/c2ccccc2)CC1	-73.2	87.6	86.6	102.5
Cc1nn(CC(=O)Nc2ccc(OC(F)(F)F)cc2)c(=O)c2c(C)n(-c3ccc(Cl)cc3)nc12	·	76.7	94.2	103.4
Cc1cc(C(=O)COC(=O)c2ccc3c(c2)C(=O)N(Cc2ccco2)C3=O)c(C)n1C	-40.8	91.5	89.2	·
OCCN1CCN(CC#CCC(c2ccccc2)c2ccccc2)CC1	-2.0	100.0	93.5	106.3
O=C(NC1CCCCCCC1)c1ccc(CNS(=O)(=O)c2ccc(F)cc2)cc1	·	120.1	81.7	101.9
CN(C)c1ccc(/C=C2/SC(=O)N(CCN=C3NS(=O)(=O)c4ccccc43)C2=O)cc1	9.9	115.2	97.3	141.8

Part of the list above in another layout:
SMILES: C(=N\n1cnnc1)/c1cccc(/C=N/n2cnnc2)c1
  HCMV NEC inh: -6.2 | Sa growth inh: 109.5 | Sa growth inh second temp: 111.6 | GIV-Gai inh: 106.6

SMILES: COc1ccccc1OCCn1c(CCNC(=O)c2cccc(C)c2)nc2ccccc21
  HCMV NEC inh: -14.8 | Sa growth inh: · | Sa growth inh second temp: · | GIV-Gai inh: 103.9

High-throughput results as filed in PubChem BioAssay.
